nsP2pro inh: Primary qHTS for inhibitors of NSP2Pro chikungunya virus (CHIKV). Polyprotein P1234 (Chikungunya virus (strain S27-African prototype)), Q8JUX6. FRET peptide cleavage, nsP2pro, fluorescence 1 h. Potency, µM (series often up to 24.9 µM), inactives show at the highest dose activity change, negative = inhibition, usual class: inhibitors. 1.1% of 31,000 active; active means well fitted inhibition curve with a large enough effect; inconclusive means small, poorly fitted or top-dose-only effect; inactive means no such curve, though single readings can be large or run the other way; further: nearly all actives have a fitted effect of over 60% in size; a reference inhibitor and vehicle were the controls
The depositor's hits bear a star; i = inactive; ? = inconclusive; [ ] = dose if it differs, or a comment. On the % scale 0 is the no-effect control and ±100 the full control effect; potency means the concentration at half of the fitted maximal effect.

SMILES,nsP2pro inh
CC(=O)O[C@@]1(C)C[C@@H](O)[C@]2(O)C=CO[C@@H](O[C@@H]3O[C@H](CO)[C@@H](O)[C@H](O)[C@H]3O)[C@@H]21,-4%[10 µM]
CC(=O)Nc1sc2c(c1-c1ccc(N3CCN(C)CC3)cc1)CCNC2,3%
O=C(NCCc1ccc(F)cc1)C(=O)NCC(c1cccs1)S(=O)(=O)c1cccs1 (stereo unspecified),-14%
CSc1ncc(Cl)c(C(=O)NCc2ccc(C)cc2)n1,-3%
Clc1ccc(-c2cnc([C@@H]3COCCN3Cc3ccccc3)[nH]2)s1,-6%[39.2 µM]
CN1C(=O)CC(c2ccccc2)C1=O (stereo unspecified),5%
COc1cc2c(cc1O)CC[C@@H]1[C@@H]2CC[C@]2(C)[C@@H](O)CC[C@@H]12,-19%
CCC(C)C(=O)Oc1cc(C)ccc1C1(COC(=O)C(C)C)CO1 (stereo unspecified),1%
COCCOCc1nc(C2CCCN2C(=O)Nc2ccc(F)cc2F)no1 (stereo unspecified),-2%
CCn1c(-c2nc3cc(C(=O)N4CCC[C@@H](N)C4)cc(OC)c3n2C)cc2ccccc21,63%

The listing continues.
SMILES,nsP2pro inh
Cc1ccc(S(=O)(=O)N(C)C2CCc3ccccc32)cc1 (stereo unspecified),-2%[39.2 µM]
NCC(=O)N1CCCC2(Cc3ccccc3CN2S(=O)(=O)c2ccccc2)C1 (stereo unspecified),i
Cc1cccc(OCCn2nnc3sc4c(c3c2=O)CCCC4)c1,-9%
NC(=O)c1ncn([C@@H]2O[C@H](CO)[C@@H](O)[C@H]2O)c1N,18%
O=C(NC1CC(c2nnc(CO)n2C2CC2)C1)c1cccn2cnnc12 (stereo unspecified),0%
Cc1ccc(C(=O)N(CC2CCN(Cc3ccccc3F)CC2)CC2CCCO2)s1 (stereo unspecified),2%
CCOc1ccc(CNC(=O)Cn2c(=O)c3cccn3c3cccnc32)cc1,-6%
CCOc1cc(CN2CCC(C(Cc3ccccc3F)N(C)C(=O)c3cccs3)CC2)ccc1O (stereo unspecified),-2%
CCCOCc1cc(CN2CCN(c3ccccc3OC)CC2)c(O)c2ncccc12,40%[activator]
COCC1(CNC(=O)c2nc3ccccc3[nH]2)C[C@@H](O)[C@@H](O)C1 (stereo partly specified),-10%[39.2 µM]

2 entries from above, set out differently:
smiles: NCC(=O)N1CCCC2(Cc3ccccc3CN2S(=O)(=O)c2ccccc2)C1 (stereo unspecified)
  nsP2pro inh = i
smiles: Cc1ccc(C(=O)N(CC2CCN(Cc3ccccc3F)CC2)CC2CCCO2)s1 (stereo unspecified)
  nsP2pro inh = 2%

More structures.
SMILES,nsP2pro inh
O=C(NCc1cccc(F)c1)C1CCCN(C(=O)N2CCOc3ccccc32)C1 (stereo unspecified),-10%
Cc1nc2sc(C)c(C)n2c(=O)c1S(=O)(=O)NCCc1ccc(Cl)cc1,-16%
Cc1cn(C[C@H](N)C(=O)O)c(=O)n(Cc2cc(-c3ccccc3)sc2C(=O)O)c1=O,-6%
O=C(NCc1noc(-c2cccs2)n1)[C@H]1CNC[C@H](C(=O)N2CCCC2)C1,i
Cc1ccc(-c2nc(CN3CCCC3=O)no2)cc1,-3%
Cc1ccc(CN2CCN(c3ncnc4onc(C)c34)CC2CCO)cc1 (stereo unspecified),-4%
CCCCC[C@H](O)C=C[C@H]1[C@H](O)CC(=O)[C@H]1CC=CCCCC(=O)O,-10%
O=c1ccn2c(n1)O[C@H]1[C@H](O)[C@@H](CO)O[C@H]12,?
O=C(NCCc1ccccc1)C1CCC(=O)N(CCCN2CCOCC2)C1 (stereo unspecified),i
CN[C@@H]1[C@@H](O[C@H]2O[C@H](CO)[C@@H](N)[C@H](O)[C@H]2O)O[C@H]2C[C@@H](N)[C@H](O[C@H]3[C@H](O)[C@@H](O)[C@H](N)C[C@@H]3N)O[C@@H]2[C@@H]1O,-3%

Going on with the list.
SMILES,nsP2pro inh
O=C(C1CCCN1C(=O)c1ccccc1Cl)N1CCC(c2nc3ccncc3[nH]2)CC1 (stereo unspecified),i
COc1ccc(-c2c(Cl)ncn2-c2ccc(S(N)(=O)=O)cc2)cc1F,-4%
Cn1c2ccsc2c2cnn(Cc3ccc(F)cc3)c(=O)c21,-4%
C[C@](N)(Cc1ccc(O)cc1)C(=O)O,-5%[2.68 µM]
CCOC(=O)[C@@H](N)CS,?
CCCCOc1ccc(C(=O)Nc2ccc3c(c2)CCCN3C(=O)c2cccs2)cc1,-17%
COc1cc(C(=O)Nc2ccc(OCc3cc(=O)n4cccc(C)c4n3)cc2)cc(OC)c1OC,19%
Cc1ccc(Cl)cc1-n1ncc2c(N3CCN(Cc4ccccc4)CC3)ncnc21,-12%
O=S1(=O)N=C(Sc2cc(C(F)(F)F)cc(C(F)(F)F)c2)c2ccccc21,-2%
O=C(NCCCN1CCN(c2ccc(F)cc2)CC1)c1cc2c(Cl)nc3ccccc3c2s1,2%

More results.
SMILES,nsP2pro inh
N#C/C(=C\c1ccc(Br)cc1)c1nc(-c2cc3cc(Br)ccc3oc2=O)cs1,-4%
CCCS(=O)(=O)N1CCC(n2c(C)nc3cccnc32)CC1,3%
COc1ccc(C(=O)N2CCOC[C@H](Oc3cnccn3)C2)cc1,i
O=C(O)c1ccc(S(=O)(=O)N[C@H](Cc2ccc(C(F)(F)F)cc2)C(=O)O)cc1,-2%
O=C1CC(c2ccccc2)N(C(=O)CNC(=O)c2ccncc2)CCCCCN1 (stereo unspecified),3%
CCOc1ccc(/C=C(\C#N)C(=O)Nc2sc3c(c2C(=O)OC)C(C(=O)OC)CC3)cc1OC (stereo unspecified),0.85µM*
Cc1ccc(C(=O)N2C[C@@H](CN3CCOCC3)[C@@H](CO)C2)cc1O,2%
C=C(C)C1CCC2(C(=O)O)CCC3(C)C(CCC4C5(C)C(C=O)C(O)C(C)(C)C5CCC43C)C12 (stereo unspecified),1%[10 µM]
C[C@]12CCC(=O)C=C1CC[C@@H]1[C@@H]2[C@@H](O)C[C@@]2(C)[C@H]1CC[C@]2(O)C(=O)COC(=O)CCC(=O)O,-4%
Cc1ccc(OCC(=O)N(Cc2ccco2)C2CCS(=O)(=O)C2)cc1 (stereo unspecified),-15%

(next part)
| structure | nsP2pro inh |
| --- | --- |
| O=C(/C=C/c1ccc(O)cc1)OC[C@H]1O[C@@H](OC(=O)/C=C/c2ccccc2)[C@H](O)[C@@H](O)[C@@H]1O | 21%[10 µM] |
| CCOC(=O)C1CCCN(C(=O)c2cc3c(Cl)nc4ccccc4c3s2)C1 (stereo unspecified) | -14% |
| COc1ccc(NC(=O)CSc2nc(-c3ccccc3)cc(-c3cc(OC)c(OC)c(OC)c3)c2C#N)c(OC)c1 | -4% |
| CC(C)CCN1CC2(CCCN(S(=O)(=O)N3CCOCC3)C2)CCC1=O (stereo unspecified) | 4% |
| CN1CCN(CCNC(=O)c2cnn(-c3ccc(F)cc3)c2C2CCN(C(=O)OC(C)(C)C)CC2)CC1 | -23% |
| CCn1c(=O)cc(SCC(=O)N2CCN(c3cc(C)ccc3C)CC2)c2ccccc21 | -14% |
| O=C(O)CO[C@@H]1COCC[C@H]1NC(=O)CCCn1cncn1 | 1% |
| Cc1cc(-c2nnc3n2CCCCCC3)c(C)n1-c1ccccc1 | -10% |

Additional structures follow:
| structure | nsP2pro inh |
| --- | --- |
| Cc1ccc(OCCn2c3c(c4ccccc42)CN(C(=O)C2CCCCC2)CC3)cc1 | -16% |
| O=C(c1ccc2ccccc2n1)N1C[C@@H](CO)[C@H](c2ccncc2)C1 | i |
| CCC(C(=O)OC)n1cnc2c(cnn2-c2ccc(F)cc2)c1=O (stereo unspecified) | -19% |
| Cc1noc(C)c1CCCNC(=O)c1ccc(NC[C@H]2C[C@H]3C=C[C@H]2C32CC2)nc1 | i |
| CC1CCCN(Cc2cn3c(-c4cccc(Br)c4)nnc3s2)C1 (stereo unspecified) | ? |
| CCOc1ccccc1CNC(=O)c1cc2c(=O)n(Cc3cccnc3)ccc2nc1C | -8% |
| O=C1CC(c2ccccc2)CC2=C1C1(CCCCC1)N=C(Nc1nc3ccccc3o1)N2 (stereo unspecified) | 3% |
| Fc1ccc2nc(CCC#Cc3ccccn3)cn2c1 | ? |

Reprinted at random: 6 compounds from above
| structure | nsP2pro inh |
| --- | --- |
| COc1cc(C(=O)Nc2ccc(OCc3cc(=O)n4cccc(C)c4n3)cc2)cc(OC)c1OC | 19% |
| O=C(/C=C/c1ccc(O)cc1)OC[C@H]1O[C@@H](OC(=O)/C=C/c2ccccc2)[C@H](O)[C@@H](O)[C@@H]1O | 21%[10 µM] |
| CC(C)CCN1CC2(CCCN(S(=O)(=O)N3CCOCC3)C2)CCC1=O (stereo unspecified) | 4% |
| O=C(NC1CC(c2nnc(CO)n2C2CC2)C1)c1cccn2cnnc12 (stereo unspecified) | 0% |
| CCCCC[C@H](O)C=C[C@H]1[C@H](O)CC(=O)[C@H]1CC=CCCCC(=O)O | -10% |
| CCOC(=O)[C@@H](N)CS | ? |

Next records
| structure | nsP2pro inh |
| --- | --- |
| O=C(NCCc1ccc(Cl)cc1)c1ccc(CS(=O)(=O)Cc2ccc(F)cc2)o1 | -18% |
| COc1ccc(C2Nc3ccccc3C(=O)N2Cc2cccs2)cc1COc1c(C)cc(NC(C)=O)cc1C (stereo unspecified) | -12% |
| Cn1c(SCc2ccccc2Cl)nc(=O)c2c1NC(=O)CC2c1cc(F)ccc1F (stereo unspecified) | -3% |
| Cc1ccc(-c2cc(C(=O)N(C)c3ccccc3)c3ccccc3n2)cc1C | -1% |
| Cc1cc(NS(=O)(=O)c2ccc(NC(=O)c3ccccc3C)cc2)nc(C)n1 | ? |
| Cc1cc(C)c2c(=O)cc(C(=O)Nc3c(C)n(C)n(-c4ccccc4)c3=O)oc2c1 | -14% |
| O=C(CCl)Nc1cccc(NC2=NS(=O)(=O)c3ccccc32)c1 | ? |
| COc1ccc([C@@H]2CN(C(=O)CCc3c(C)noc3C)C[C@H]2N(C)C)cc1 | i |

Next part.
| structure | nsP2pro inh |
| --- | --- |
| Cc1cc(C)nc(NC(=S)N2CCN(c3ccc(C(F)(F)F)cc3C(F)(F)F)CC2)c1 | -6% |
| COCC(=O)Nc1ccc([C@H]2OCC(=O)N[C@@H]2CO)cc1 | i |
| CC(C)CNC(=O)CN1CCOc2c(O)cc(-c3cccc(Cl)c3)cc2C1 | i |
| O=C(c1ccncc1)N1CC2CCC(C1)N2Cc1ccc(-c2cccs2)cc1 | 3% |
| CC(=O)OC[C@]12[C@@H](OC(=O)c3ccoc3)C[C@@H]3[C@@H](OC(C)=O)[C@]1(OC3(C)C)[C@@](C)(O)C[C@H](OC(=O)c1ccoc1)[C@@H]2OC(=O)c1ccoc1 | -12%[10 µM] |
| CCC(=O)C1CCCN(C(=O)CC(c2ccc3c(c2)OCO3)c2c(O)cc(OC)cc2OC)C1 (stereo unspecified) | 0%[39.2 µM] |
| O=C(NCc1ccccc1)C(=O)NCC(c1cccnc1)N1CCN(c2ccccc2)CC1 (stereo unspecified) | -17% |
| Nc1c(-c2ccccc2)cc[nH]c1=O | -12% |

The list goes on:
| structure | nsP2pro inh |
| --- | --- |
| CCOCCn1cnc2sc(C(=O)Nc3ccccc3C(=O)OC)c(C)c2c1=O | -25% |
| CC1CCC2(C(=O)OC3OC(CO)C(O)C(O)C3O)CCC3(C)C(=CCC4C5(C)CC(O)C(O)C(C)(C(=O)O)C5CCC43C)C2C1(C)O (stereo unspecified) | 5%[10 µM] |
| CCCn1ccnc1-c1c(-c2ccccc2)ncn1CCCC(=O)OC | i |
| C[C@H]1CCC/C=C/C2C[C@H](O)C[C@H]2[C@H](O)/C=C/C(=O)O1 (stereo partly specified) | ? |
| Cn1cc(CN[C@H]2C[C@H]3C(=O)NC[C@@H](CCC(=O)NCc4ccccc4)N3C2)c2ccccc21 | -3% |
| NC(=Nc1ccccc1)Nc1ccccc1 | -4% |
| Cc1ccc(S(=O)(=O)Nc2ccccc2C(=O)Nc2ncc(-c3ccccc3)s2)cc1 | ? |
| Cc1cc(C)n2ncc(C(=O)Nc3ccc(C(F)(F)F)cc3)c2n1 | 3% |

Following part.
| structure | nsP2pro inh |
| --- | --- |
| COc1ccccc1-c1ccc(CN2CCCC(c3nc4ccc(C)cc4c(=O)[nH]3)C2)cc1 (stereo unspecified) | -4% |
| COc1ccc(Nc2c(-c3cccc(O)c3)nc3cnccn23)cc1 | -3% |
| Cc1ccc(-c2ccc(=O)n(CC(=O)NCCc3cnc[nH]3)n2)cc1 | 1% |
| CCOc1ccc(CCNC(=O)c2cc3cnccc3n2Cc2cccc(C)c2)cc1OCC | i |
| COCCOc1cc(-c2noc([C@@H]3CCCN3C3CCN(C(C)=O)CC3)n2)ccn1 | i |
| COc1ccc(-c2cc(C(=O)NCc3c(C)cc(C)[nH]c3=O)c3c(c2)N(C)CCO3)cn1 | i |
| CCC1NC(=O)c2cc(S(N)(=O)=O)c(Cl)cc2N1 (stereo unspecified) | -9% |
| Cc1ccc(-c2cc(N3CCCN(C(=O)c4ccccc4F)CC3)n[nH]2)cc1C | i |

Next records follow:
| structure | nsP2pro inh |
| --- | --- |
| CCOC(=O)c1csc(Nc2ccc(Cl)cc2)n1 | -3% |
| COC(=O)CCC[N+](C)(C)C | 9% |
| N#Cc1ccc(N2C[C@@H]3OCC(=O)N(CC4CCCCC4)[C@@H]3C2)nc1 | -3%[39.2 µM] |
| O=C1C(=O)c2ccccc2C(O)=C1C1CCC(c2ccc(Cl)cc2)CC1 (stereo unspecified) | ? |
| Clc1ccc(CNc2nc3ccccc3c3nc(-c4cccnc4)nn23)cc1 | -11% |
| N#CN1CCC(NS(=O)(=O)c2ccc(C(F)(F)F)cc2)C1 (stereo unspecified) | -3% |
| Cn1ncc2ccc(-c3ccc4ncnc(NCc5cccs5)c4c3)cc21 | i |
| CCc1ccc(NC(=O)CCS(=O)(=O)c2ccc3c(c2)CCN3C(C)=O)cc1 | -12% |
| COc1cccc(C2c3c(ncn(-c4cccc(OC)c4)c3=N)Oc3ccc4ccccc4c32)c1 (stereo unspecified) | -7% |
| Cc1ccc(Cn2c(=O)n(Cc3ccc(Cl)cc3)c(=O)c3cccnc32)cc1 | -14% |
| COc1cc(F)ccc1-c1nccc2c(=O)cc(-c3cnn(C)c3)oc12 | -2%[39.2 µM] |

Some of the compounds tested (hit frequency here may not be typical).
